Bioassay records deposited in PubChem by National Center for Advancing Translational Sciences (NCATS).
Bst PK mod – Pyruvate Kinase. Potency, µM. partly purified Bacillus stearothermophilus pyruvate kinase, luminescence ATP production; ribose 5-phosphate activator present at AC10. 51,000 compounds, 1.2% hits; in the data active means potency below about 11 µM; inconclusive means mostly about 12 µM to 25 µM; inactive means weaker than that;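 the screen sought inhibitors and activators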;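 note: potency is the fitted concentration of half-maximal effect; scaled between full activation by ribose 5 phosphate and full inhibition by luteolin; about four in five hits inhibit and the cells do not say which; series up to 57 µM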
YjeE inh – qHTS Assay for Inhibitors of YjeE; tRNA threonylcarbamoyladenosine biosynthesis protein TsaE (Escherichia coli (strain …; purified YjeE, fluorescence polarisation of a bound ADP probe; Potency, µM; 71,000 compounds, 0.05% hits; AID 605, 2007; active = well fitted falling curve; inconclusive = weaker or top-dose-only fall, or a rising curve; inactive = flat or poorly fitted curve;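 note: top concentration of the series not given in the record; excess ADP was the control for the full effect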
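Purified YjeE (10 uM) with BODIPY Texas Red-labeled ADP probe (2 uM); compounds pin-transferred, 15 min at room temperature. Binding inhibition read as decreased fluorescence polarization; ADP titration as control.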
Numbers without * were called inactive; i = inactive; ? = inconclusive; . = no result given.

SMILES	Bst PK mod	YjeE inh
Brc1ccc(-c2cnc3n2CCCC3)cc1	?	.
CCC(=O)N1CCc2cc(S(=O)(=O)N3CCN(c4ccccn4)CC3)ccc21	>57	i
COCCCNC(=O)Cn1cc2c(n1)CCCCC2	.	i
O=C(OC1CCOC1=O)c1ccc(-c2nc3ccccc3s2)s1 (centres undefined)	4.84*	i
C=C1CC[C@@H](O)C/C1=C/C=C1\CCC[C@]2(C)[C@@H]1CC[C@H]2[C@@H](C)CCCC(C)C	.	i
CC(C)C(C)C	.	i
Cc1cccc2cc(CN(CC3CCCO3)C(=O)c3ccncc3)c(=O)[nH]c12 (centres undefined)	>57	i
CCCCc1c(O)nc2n(c1=O)CCS2	>57	i
COCCCNC(=O)c1cc2c(=O)n3cccc(C)c3nc2n(C(C)C)c1=N	>57	i
CCOC(=O)C1CCCN(c2c(NCCN(C)Cc3ccccc3)c(=O)c2=O)C1 (centres undefined)	.	i
O=C1OC(=O)c2c(Br)c(Br)c(Br)c(Br)c21	.	i
CCOC(=O)C1CCCN(S(=O)(=O)c2cc(Br)cc3c2N(C(=O)C2CC2)CC3)C1 (centres undefined)	>57	i
COc1ccc(N2CCN(C(=O)CCN3C(=O)c4ccccc4S3(=O)=O)CC2)cc1	>57	i
Cc1nccc2[nH]c(=O)c(C(=O)NC3CCN(Cc4ccccc4)CC3)cc12	.	i
Cc1cc(/C=N/n2cnnc2)c(C)n1-c1ccc2ncccc2c1	.	i
O=C(O)c1cccc(CN2C(=O)CSC2=O)c1	.	i
CC(C)CN(C(=O)c1ccc(=O)n(C)n1)c1nc2ccccc2s1	>57	i
CCOC(=O)N1CCc2c(sc3c2C(=O)NC(c2ccccc2)N3)C1 (centres undefined)	i	i
CCCCCOC(=O)C1[C@H]2C(=O)N(CCCOC)C[C@]23C=C[C@H]1O3 (some centres undefined)	>57	i
CCN1CCCC1CNC(=O)c1nn(-c2ccc(C)cc2)c(=O)c2c1c1ccccc1n2C (centres undefined)	>57	i
CCOc1ccc(C(C)=O)cc1CSc1nnc(-c2ccoc2C)n1N	>57	i
CCC1(C)Cc2c(sc(NC(=O)CCC(=O)O)c2C#N)CO1 (centres undefined)	>25.6	.
Cc1cc(C)nc(Nc2ccc(N3CCCC3)cc2)n1	.	i
COC(=O)C1=C(C)NC(C)=C(C(=O)OC)C1c1cc2ccc(C)cc2[nH]c1=O	>57	i
CCOC(=O)c1ccc(NC(=O)CSc2nnc(C)n2-c2ccccc2)cc1	>57	i
CCOc1ccc(NC(=O)CCN2CCN(c3ccccc3)CC2)cc1	.	i
S=c1[nH]nc(-c2ccccc2Cl)n1CC1CCCO1 (centres undefined)	>57	i
Cc1noc(/C=C/N(C)C)c1S(=O)(=O)N1CCCC(C(=O)NCc2ccco2)C1 (centres undefined)	.	i
CC[C@]1(O)C[C@@H]2CN(CCc3c([nH]c4ccccc34)[C@](C(=O)OC)(c3cc4c(cc3OC)N(C)[C@H]3[C@](O)(C(=O)OC)[C@@H](C(=O)OC)[C@@]5(CC)C=CCN6CC[C@@]43[C@@H]65)C2)C1	.	i
COc1ccc([C@H]2Sc3ccccc3N(CCN(C)C)C(=O)[C@H]2OC(C)=O)cc1	.	i
CC1CCCCN1S(=O)(=O)c1coc(C(N)=O)c1 (centres undefined)	.	i
COc1cc(NC(=O)CCCC(=O)OCC(F)(F)C(F)F)nc(OC)n1	.	i
Cc1ccc(S(=O)(=O)Nc2cc(C(=O)O)ccc2N2CCCCC2)cc1	>57	i
O=Nc1c2nc3ccccc3n(O)c-2c2ccccc12	7.25*	i
Cc1ccc(S(=O)(=O)Cc2ccc(C(=O)N3CCN(c4ccccn4)CC3)o2)cc1	.	i
CC1Cc2ccccc2N1C(=O)c1ccc2snnc2c1 (centres undefined)	.	i
NC1(C(=O)OCc2ccccc2)CCCC1	.	i
CCOc1cc(NC(=O)c2ccco2)c(OCC)cc1NC(=O)CCc1ccccc1OC	>57	i
CC1CCCC(C)N1C(=O)Cn1c(SCC(=O)Nc2ccc3c(c2)OCO3)nc2ccccc21 (centres undefined)	>57	i
CCOC(=O)CSc1ncnc2c1cnn2-c1ccccc1	.	i
CN(C)C(=O)N1CCN(C(=O)N(C)C)CC1	>57	i
O=C(CN1CCOCC1)NCCNC(=O)CN1CCOCC1	>57	i
CC(C)N1CCN(c2ccc(OC[C@@H]3CO[C@@](Cn4cncn4)(c4ccc(Cl)cc4Cl)O3)cc2)CC1	.	i
CCC1S/C(=C(\C#N)C(N)=O)N(c2ccc(F)cc2)C1=O (centres undefined)	>57	i
COc1ccc(CCNC(=O)Cn2c(=O)n(Cc3ccco3)c(=O)c3ccc(Cl)cc32)cc1OC	>57	?
O=C(NCCc1ccccc1)C1CCN(S(=O)(=O)c2cccs2)CC1	>57	i
COc1ccc(NC(=O)N(CCCN(C)C)Cc2cc3cc(OC)ccc3[nH]c2=O)cc1	.	i
COC(=O)Cc1ccc2c3ccccc3n(C)c2c1	.	i
S=c1[nH]nc(COc2ccccc2)n1C1CCCCC1	.	i
O=C(NCCc1ccccc1)c1c(O)c2cccc3c2n(c1=O)CC3	>57	i
(cont.)
SMILES	Bst PK mod	YjeE inh
CCCCN1CCCCC1C(=O)Nc1c(C)cc(C)cc1C (centres undefined)	>57	i
CC(C)OC(=O)c1nnc(Cc2ccc(Cl)cc2)o1	.	i
Cc1oc(-c2ccc(Cl)cc2)nc1CN1CCCC(C(=O)NCc2ccco2)C1 (centres undefined)	>57	i
Cc1cc(O)c(C(=O)c2ccccc2C(=O)O)cc1C	.	i
COc1cc(OC)c(C2=NOC(C(=O)Nc3c(C)nn(CC(=O)N4CCCC4)c3C)C2)cc1Cl (centres undefined)	>57	i
CC(=O)c1cc(CN2C(=O)c3ccccc3C2=O)cs1	>57	i
C1CCN(c2nc(N3CCCC3)nc(N3CCNCC3)n2)C1	>57	i
c1cnn(-c2cc(N3CCOCC3)ncn2)c1	>57	i
CC1CN(C(=O)C(C)N2C(=O)c3ccccc3C2=O)CC(C)O1 (centres undefined)	>57	i
CCO/C(C)=N/n1c2nc3ccccc3nc2c2c(=O)n(C3CCCC3)c(C)nc21	>57	i

Filtered by structure, the compounds so far with two or more sulfur atoms
SMILES	Bst PK mod	YjeE inh
O=C(OC1CCOC1=O)c1ccc(-c2nc3ccccc3s2)s1 (centres undefined)	4.84*	i
O=C(NCCc1ccccc1)C1CCN(S(=O)(=O)c2cccs2)CC1	>57	i

5 entries already listed, arranged by formula weight, smallest number first.
SMILES	Bst PK mod	YjeE inh
c1cnn(-c2cc(N3CCOCC3)ncn2)c1	>57	i
Cc1cc(O)c(C(=O)c2ccccc2C(=O)O)cc1C	.	i
CCO/C(C)=N/n1c2nc3ccccc3nc2c2c(=O)n(C3CCCC3)c(C)nc21	>57	i
Cc1oc(-c2ccc(Cl)cc2)nc1CN1CCCC(C(=O)NCc2ccco2)C1 (centres undefined)	>57	i
COc1cc(OC)c(C2=NOC(C(=O)Nc3c(C)nn(CC(=O)N4CCCC4)c3C)C2)cc1Cl (centres undefined)	>57	i

Later entries.
SMILES	Bst PK mod	YjeE inh
[O-][N+](CCO)(CCO)c1ncnc2nc[nH]c12	.	i
CCOc1cc2c(C#N)c(N3CCOCC3)nc(N)c2c(N)n1	.	i
Cc1cccc(CC2CC(=O)N(C3CCCCC3)C2=O)c1 (centres undefined)	>57	i
O=c1cc(-c2ccccc2)nc2nc(COc3ccccc3)[nH]n12	>57	i
O=C(NCc1ccccc1)c1n[nH]nc1-c1ccccc1O	>57	i
CCCn1c(C)nc2c(N3CCC(N4CCN(C)CC4)CC3)nc(C)nc21	.	i
CCCC12CN3CC(C)(CN(C1)C3c1ccc3c(c1)OCO3)C2=O (centres undefined)	>57	i
COC(=O)C1=C(C)NC(C)=C(C(=O)OC)C1C(=O)OC1CCCCC1=O (centres undefined)	>57	i
Cc1ccc(-n2c(N)c(C(N)=O)sc2=S)cc1	>25.6	.
O=C(Nc1ccc2nc(-c3ccc(Br)o3)[nH]c2c1)c1cccs1	?	i
COc1cccc(CN2CCCN(S(=O)(=O)c3ccc(Br)cc3)CC2)c1	>57	i
CCCCOCCCNC(=O)N[C@@H](CC(C)C)C(=O)O	>57	i
CN(Cc1nc(-c2ccncc2)no1)S(=O)(=O)c1ccc(Br)cc1	>57	i
CCOC(=O)N1CCC(N2C(=O)c3cc(C(=O)NC4CCCCC4)ccc3C2O)CC1 (centres undefined)	.	i
Cc1ccc(-n2ncc3c(=O)n(CC(=O)NCC4CCCO4)cnc32)cc1 (centres undefined)	.	i
CCn1c(SCC(=O)N2CCCc3ccccc32)nc2c1c(=O)n(C)c(=O)n2C	>57	i
CC(C)(C)OC(=O)N1CCC[C@H]1c1nnc(SC/C=C/c2ccccc2)o1	>57	i
COC(=O)CN(c1ccccc1F)S(=O)(=O)c1ccccc1	.	i
CN(C)c1ccnc(-c2ccccc2C(F)(F)F)n1	.	i
Nc1ncn([C@H]2O[C@@H](CO)[C@@H](O)[C@@H]2O)c(=O)n1	.	i

Full records from above:
CCCCOCCCNC(=O)N[C@@H](CC(C)C)C(=O)O is listed with Bst PK mod: >57; YjeE inh: i
COC(=O)CN(c1ccccc1F)S(=O)(=O)c1ccccc1 is listed with Bst PK mod: .; YjeE inh: i
CCn1c(SCC(=O)N2CCCc3ccccc32)nc2c1c(=O)n(C)c(=O)n2C is listed with Bst PK mod: >57; YjeE inh: i

(further entries)
SMILES	Bst PK mod	YjeE inh
O=C(CCC1CCCC1)N1CCN(C(=O)c2cccnc2)CC1	>57	i
O=C1CCC(=O)N1CCCCCc1nc(-c2ccccc2)no1	>57	i
Cc1nc(SCC(=O)N2CCN(c3ccccc3)CC2)c2oc3ccccc3c2n1	>57	i
O=C(c1ccco1)N1CCN(/C(=N/S(=O)(=O)c2cccs2)c2ccccc2Cl)CC1	>57	i
CCC(=O)Nc1c(C(=O)Nc2cccc(OC)c2)oc2ccccc12	>57	i
CCC(=O)Nc1ccc(C(=O)Nc2cccnc2)cc1	>57	i
CCOc1ccc(C2CC(c3ccccc3C)n3ncnc3N2)cc1 (centres undefined)	.	i
Cc1nccn1C[C@@H]1CCc2c(c3ccccc3n2C)C1=O	.	i
Cc1ccc(S(=O)(=O)NC(=O)Nn2c(C)nnc2C)cc1	.	i
COc1ccc(OC)c(NC(=O)C2=C(C)Nc3ncnn3C2c2cccs2)c1 (centres undefined)	>57	i
COc1cccc(C2CC(C(F)(F)F)n3nc(C(=O)NCc4cccnc4)cc3N2)c1 (centres undefined)	>57	i
Cc1ccc(-c2noc(CCC(=O)NCC3CCN(Cc4cccc(C)c4)CC3)n2)cc1	>57	i
CCOC(=O)c1c(C)n(C)c2ccc(OCC(O)CN3CCCCCC3)cc12 (centres undefined)	.	i
C/C(N)=C(/C#N)C(=O)CSc1nnc(NC(C)C)s1	>57	i
COc1cccc(-c2ccc3ncnc(NCc4ccccc4)c3c2)c1	.	i
COC(=O)c1ccc(C2c3c(n[nH]c3C)C(=O)N2c2ccc(C)cc2)cc1 (centres undefined)	.	i
Cc1nc2cc(Cl)ccc2n1CCO	>57	i
OCC(CBr)(CBr)CBr	.	i
O=C(O)CSC1CC(=O)N(c2ccc(Cl)c(Cl)c2)C1=O (centres undefined)	?	i
C/C(N)=C(/C#N)C(=O)COC(=O)CSc1ccccc1	>57	i
Cc1nc2ccccc2c2oc(C(=O)N3CCc4ccccc4C3)cc12	.	i
CC(C)CCOc1ccc(C2(C)NC(=O)N(CN3CCOCC3)C2=O)cc1 (centres undefined)	>57	i
CCOC(=O)C1=C(C)Nc2nnnn2C1c1ccc(OC)c(Br)c1 (centres undefined)	.	i
Cc1cc(S(=O)(=O)NC2CCCCC2)ccc1OCC(=O)NCc1ccccn1	>57	i
CN(C)S(=O)(=O)c1ccc(N2CCN(S(=O)(=O)c3ccc(F)cc3)CC2)c(Cl)c1	6.06*	i
COc1ccc(S(=O)(=O)N2CCSC2c2ccc(N)cc2)cc1 (centres undefined)	>57	i
COc1ccc2nc(SCC(=O)Nc3ccccc3C#N)[nH]c2c1	>57	i
O=C(/C=N/O)NCC1CCNCC1	>57	i
C/C(=C\C(=O)c1ccncc1)Nc1ccccc1O	.	i
Cc1sc2nc3ccc(N4CCCCC4)nn3c(=O)c2c1C	i	i
C=CCCC	.	i
CCCn1c(N2CCN(CC(=O)Nc3ccc4c(c3)OCCO4)CC2)nc2ccccc21	>57	i
Cc1ccc(C(=O)NCC2CCCO2)cc1N1CCCC1=O (centres undefined)	>57	i
CC1OC(Nc2ccc(OC(F)(F)F)cc2)C(O)C(O)C1O (centres undefined)	>57	i
CN=C1N[C@H](c2ccccc2)N(c2ccccc2)S1	.	i
CN1CCN(S(=O)(=O)c2ccc(Sc3nnc(-c4cccs4)n3-c3ccccc3)nc2)CC1	>57	i
Cn1c(SCC(=O)Nc2nc3c(s2)CCCC3)nnc1-c1ccccc1	>57	i
CCOC(=O)c1c(NC(=O)CSc2n[nH]c(N)n2)sc(CC)c1C	>57	i
O=C1c2ccccc2S(=O)(=O)N1CCOc1ccccc1	>57	i
CC1CCN(S(=O)(=O)c2cccc(C(=O)NCc3cccs3)c2)CC1	>57	i
Cc1cc(C)cc(NC(=O)N2CCC(NC(=O)c3ccc(F)cc3)CC2)c1	>57	i
O=C1Nc2ccc(I)cc2/C1=C/c1cc(Br)c(O)c(Br)c1	.	?

This is a subset. The share of hits here may be higher or lower than overall.
